Screening results deposited in PubChem by National Center for Advancing Translational Sciences (NCATS).
RE007 growth inh: qHTS Assay for Inhibitors of the HIV-1 protein Vpr. actives 0.21% (n = 360,000). AID 651644, 2012. Potency, µM (titrated, usually from 92.2 µM), for inactives: at the top dose activity change, negative = less growth. S. pombe RE007 Vpr strain, BacTiter-Glo ATP luminescence, 24 h; control for the full effect not named in the record; active = well fitted falling curve with a large enough effect; inconclusive = small, poorly fitted or top-dose-only effect; inactive = no such curve, though single readings can be large or run the other way;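 also: % is scaled to controls: 0 for no effect and ±100 for the full control effect; nearly all actives have a fitted effect of over 50% in size; the assay follows cell death caused by Vpr and the record does not say whether a fall means rescue or toxicity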
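Fission yeast strain RE007, carrying one chromosomally integrated HIV-1 vpr copy, was seeded at OD 0.01 in PMG+AL medium with 23 nL pinned compound. After 24 h at 30 °C and 99% humidity, viability was read by BacTiter-Glo luminescence.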
NS1 function inh: qHTS Assay for Inhibitors of Influenza NS1 Protein Function; Potency, µM (highest dose often 46.1 µM), for inactives: top-dose activity, positive = more growth; S. cerevisiae slowed by influenza A NS1, growth recovery by OD600; actives 0.4% (n = 270,000); active means well fitted rising curve with a large enough effect; inconclusive means small, poorly fitted or top-dose-only effect; inactive means no such curve, though single readings can be large or run the other way; also: nearly all actives have a fitted effect of over 50% in size
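OD600 was taken as the measure of yeast growth restored by compound in an NS1-expressing S. cerevisiae strain. Cells had been washed out of glucose medium and diluted 1:100 into galactose -URA medium, pH 6.0.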
Cruzain noTriton: qHTS Assay for Promiscuous and Specific Inhibitors of Cruzain (without detergent); Potency, µM, inactives show max response, negative = inhibition, most hits filed as inhibitors; Cruzipain (Trypanosoma cruzi), P25779; purified cruzain, Z-FR-AMC fluorescence, no detergent; actives 2.3% (n = 200,000);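 also: plate controls were enzyme without inhibitor for no effect and buffer without enzyme for full effect; nearly all actives have a fitted effect of over 40% in size; top concentration of the series not given in the record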
Target sequence (P25779 123-467 limits assumed): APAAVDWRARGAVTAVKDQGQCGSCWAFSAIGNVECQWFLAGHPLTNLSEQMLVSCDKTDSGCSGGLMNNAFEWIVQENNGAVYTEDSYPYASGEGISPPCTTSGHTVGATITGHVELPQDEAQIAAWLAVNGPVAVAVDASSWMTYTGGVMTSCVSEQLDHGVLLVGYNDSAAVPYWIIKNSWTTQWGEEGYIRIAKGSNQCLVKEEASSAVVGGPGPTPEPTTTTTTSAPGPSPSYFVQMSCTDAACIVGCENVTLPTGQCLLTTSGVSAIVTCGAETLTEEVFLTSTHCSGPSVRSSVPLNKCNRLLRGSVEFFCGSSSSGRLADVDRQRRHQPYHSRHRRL
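Detergent-free condition (0.00005% Triton X-100) in acetate buffer pH 5.5 with DTT. 1.5 nM enzyme and compound were pre-mixed 15 min, then 2 uM Z-FR-AMC substrate added; reaction progress from fluorescence change between first and third reads (60 s).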
Lassa entry inh: qHTS for Inhibitors of binding or entry into cells for Lassa Virus | Lassa virus pseudotype entry inhibition, cell reporter; control for the full effect not named in the record | Potency, µM (titrated, usually from 37.9 µM), for inactives: at the top dose activity change, negative = inhibition, hits mostly inhibitors | actives 1.2% (n = 300,000) | AID 540256, 2011; active means well fitted inhibition curve with a large enough effect; inconclusive means small, poorly fitted or top-dose-only effect, or effect the other way; inactive means flat fitted curve, though single readings scatter; tested in HEK293 cells; also: % is scaled to controls: 0 for no effect and ±100 for the full control effect; nearly all actives have a fitted effect of over 50% in size; luciferase read-out
StopGo reporter: High Throughput Screening for Foot and Mouth Disease Virus Antivirals | human cells with a luciferase reporter of 2A StopGo recoding; control for the full effect not named in the record | Potency, µM (titrated, usually from 57.9 µM), inactives show at the highest dose signal change, negative = less light | actives 1.2% (n = 410,000); active = well fitted falling curve with a large enough effect; inconclusive = small, poorly fitted or top-dose-only effect; inactive = no such curve, though single readings can be large or run the other way; tested in HEK293T cells; also: % is scaled to controls: 0 for no effect and ±100 for the full control effect; nearly all actives have a fitted effect of over 45% in size; luciferase light after 4 h
Cruzain inh Det: qHTS Assay for Promiscuous and Specific Inhibitors of Cruzain (with detergent); Potency, µM, without a hit: max response, negative = inhibition, hits mostly inhibitors; actives 0.43% (n = 200,000); Cruzipain (Trypanosoma cruzi), P25779; AID 1478, 2009; purified cruzain, Z-FR-AMC fluorescence, 0.01% Triton;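 also: plate controls were neutral wells for no effect and buffer without enzyme for full effect; nearly all actives have a fitted effect of over 40% in size; top concentration of the series not given in the record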
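Z-FR-AMC hydrolysis (2 uM substrate) by cruzain (1.5 nM) monitored kinetically at ex 360/em 450 nm after 15 min room-temperature compound exposure; 0.01% Triton X-100, pH 5.5, 5 mM DTT.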
SARS PLP yeast: qHTS of Yeast-based Assay for SARS-CoV PLP; S. cerevisiae expressing SARS-CoV PLpro, growth rescue; control for the full effect not named in the record; Potency, µM (doses to about 32.9 µM), for the others: at the top dose activity, positive = growth rescue; actives 0.19% (n = 330,000); AID 485353, 2010; active means well fitted rising curve with a large enough effect; inconclusive means small, poorly fitted or top-dose-only effect; inactive means no such curve, though single readings can be large or run the other way; also: 0% is about no effect; nearly all actives have a fitted effect of over 55% in size; growth read by luminescence after 48 h
Marburg entry inh: qHTS for inhibitors of binding or entry into cells for Marburg Virus; Marburg virus pseudotyped entry inhibition, cell reporter; control for the full effect not named in the record; about a third of the inactives were read at about 46 µM; Potency, µM (series often up to 37.8 µM), inactives show at the top dose activity change, negative = inhibition, actives largely listed as inhibitors; actives 1.8% (n = 300,000); AID 540276, 2011; active = well fitted inhibition curve with a large enough effect; inconclusive = small, poorly fitted or top-dose-only effect, or effect the other way; inactive = flat fitted curve, though single readings scatter; tested in HEK293 cells; about a fifth of its hits are not listed in these tables; also: % is scaled to controls: 0 for no effect and ±100 for the full control effect; luciferase read-out
* hit, by the source's call; ? = inconclusive; . = no result given; & = joins results of further samples; [ ] = another dose, or the depositor's remark. Unless noted, calls follow the shape of the dose curve; as a rule, active = well fitted curve in the direction sought with a large enough effect; inconclusive = small, poorly fitted or top-dose-only effect, or another doubt; inactive = no such curve, though single readings can be large; an effect the other way counts as inactive or inconclusive. Potency is read from the fitted curve at half-maximal effect. Hits appear at their usual frequency (roughly 4.7% active in at least one column).

SMILES | RE007 growth inh | NS1 function inh | Cruzain noTriton | Lassa entry inh | StopGo reporter | Cruzain inh Det | SARS PLP yeast | Marburg entry inh
CCOc1ccc(S(=O)(=O)N(CC(=O)Nc2cc(C)on2)Cc2ccccc2Cl)cc1 | -9% | -56% | 10% | 1% | . | -4.5% | -2% | -23%
O=C(Nc1ccc(F)cc1F)c1noc2c1CCc1ccccc1-2 | . | . | ? | ? | 18% | -2.5% | . | ?
NC(=O)c1ccccc1NC(=O)CC12CC3CC(CC(Br)(C3)C1)C2 | -6% | 10% | . | 16% | -1% | . | 3% | -1%[46.1 µM]
Cc1ccc(Cn2c(SCC(=O)N(C)C3CCS(=O)(=O)C3)nc3ccccc3c2=O)cc1 (stereo not given) | -4% | . | . | ? | -20% | . | -3% | -12%
OCC1(CCc2ccccc2)CCN(Cc2c(F)ccc(F)c2F)CC1 | -19% | 4% | . | . | -6% | . | -1% | .
COc1cc(OC)c(C(=O)OCC(=O)N2CCN(S(=O)(=O)c3ccc(C)cc3C)CC2)cc1OC | -5% | . | . | 5% | ? | . | . | -27%
O=c1nc(NO)ccn1C1CCCO1 (stereo not given) | 3% | . | . | 19% | 5% | . | . | 5%
Cc1ccc(NC(=O)Nc2c(C)[nH]c(=O)[nH]c2=O)cc1Cl | -12% | -3% | . | -1%[46.1 µM] | -9% | . | -1% | -4%[46.1 µM]
Cc1ccc2c(c1)c1c(c(=O)n(-c3ccccc3C)c(=O)n1CC(=O)N1CCCC1)n2C | . | . | 6% | 12%[46.1 µM] | -18% | 0.3% | . | .
COc1ccc(S(=O)(=O)N2CCN(c3ccc(F)cc3)CC2)cc1C(=O)N1CCOCC1 | -5% | -36% | . | -1% | -11% | . | 1% | 27%[46.1 µM]
CC(=O)Nc1ccc(C(=O)N/C(=C\c2ccccc2)C(=O)Nc2cccc(C(=O)O)c2)cc1 | -1% | 11% | . | 13% | -6% | . | 0% | 30%[46.1 µM]
CCN(C(=O)COC(=O)c1ccccc1Oc1ccccc1)c1c(N)n(Cc2ccccc2)c(=O)[nH]c1=O | 15% | . | . | -24% | -26% | . | . | 21%
CCOc1cc(Cl)c(S(=O)(=O)n2ccnc2)cc1Cl | . | . | 0% | . | -9% | 1.1% | . | -9%[46.1 µM]
Cc1ccc(NC(=O)c2noc3c2CCC3)cc1C | -13% | . | . | ? | -8% | . | 0% | ?
CC(O)CNc1nc2ccccc2n1-c1ncnc2sc3c(c12)CCC3 (stereo not given) | 5% | -1% | -22% | 21% | ? | -15% | -6% | ?

Profiles as entered above. Screens in order: RE007 growth inh	NS1 function inh	Cruzain noTriton	Lassa entry inh	StopGo reporter	Cruzain inh Det	SARS PLP yeast	Marburg entry inh
Cc1ccc2c(c1)c1c(c(=O)n(-c3ccccc3C)c(=O)n1CC(=O)N1CCCC1)n2C reads .	.	6%	12%[46.1 µM]	-18%	0.3%	.	.
NC(=O)c1ccccc1NC(=O)CC12CC3CC(CC(Br)(C3)C1)C2 reads -6%	10%	.	16%	-1%	.	3%	-1%[46.1 µM]
O=C(Nc1ccc(F)cc1F)c1noc2c1CCc1ccccc1-2 reads .	.	?	?	18%	-2.5%	.	?
Cc1ccc(NC(=O)c2noc3c2CCC3)cc1C reads -13%	.	.	?	-8%	.	0%	?

The listing picks up, starting 2 compounds before the break.
SMILES | RE007 growth inh | NS1 function inh | Cruzain noTriton | Lassa entry inh | StopGo reporter | Cruzain inh Det | SARS PLP yeast | Marburg entry inh
Cc1ccc(NC(=O)c2noc3c2CCC3)cc1C | -13% | . | . | ? | -8% | . | 0% | ?
CC(O)CNc1nc2ccccc2n1-c1ncnc2sc3c(c12)CCC3 (stereo not given) | 5% | -1% | -22% | 21% | ? | -15% | -6% | ?
CC1=C(C(=O)Nc2ccccc2Cl)C(c2cccc(O)c2)n2ncnc2N1 (stereo not given) | . | . | 8% | -20%[46.1 µM] | -7% | -2.5% | . | .
Cc1ccc([N+](=O)[O-])cc1N(CC(=O)NCC1CCCO1)S(C)(=O)=O (stereo not given) | 4% | 4% | . | 1%[46.1 µM] | -21% | . | 1% | -1%[46.1 µM]
CCCCOC(=O)C1=C(N)N2C(=O)C(C)SC2=C(C(=O)OCC)C1c1ccc(O)c(OC)c1 (stereo not given) | 3% | 0% | . | -9% | -5% | . | -3% | 5%
CC1(C)Cc2ccccc2C(NN=C2CCCC2)=N1 | -2% | -2% | . | 11% | -3% | . | 0% | ?
NC(=NC(=O)c1ccccc1)C1=C(O)CCC1=O | -3% | -2% | -6% | 18% | 25% | -5.8% | 4% | 9%
O=C(Nc1sc2c(c1C(=O)NC1CC1)CCCCCC2)c1ccco1 | 4% | ? | ? | 3% | 6% | -7.6% | 1% | 10%
CCOC(=O)c1ccc(NC(=O)c2c(Cl)cc(C)nc2C)cc1 | -8% | -12% | . | -3%[46.1 µM] | 5% | . | -5% | -5%[46.1 µM]
CC(C(=O)N1CCc2ccccc21)N1CCN(Cc2ccccc2)CC1 (stereo not given) | -13% | -1% | . | . | -9% | . | 0% | .
COC(=O)C1=C(C(=O)OC)[C@@H]2N(Cc3ccccc3)c3ccccc3[C@@]23C[C@@H](C(=O)OC)N(C(C)=O)C3=N1 | -13% | -9% | . | . | 0% | . | 5% | .
CC(C)C[C@@H]1NC(=O)[C@H](Cc2ccccc2)N(C)C(=O)[C@H](C)NC(=O)c2ccccc2NC(=O)[C@H](Cc2ccc(O)cc2)N(C)C1=O | -4% | 14% | . | . | -16% | . | 1% | .
Cc1ccccc1NC(=O)CSc1nc2ccccc2c(=O)n1C | 14% | -29% | . | 0% | ? | . | -13% | -29%
COc1ccccc1N(Cc1cc(=O)[nH]c2ccccc12)C(C)=O | 14% | -1% | . | . | -3% | . | -1% | .
CC1=CC(C)(C)N(C(=O)C(C)N2C(=O)c3ccccc3C2=O)c2c(C)cc(C)cc21 (stereo not given) | . | -23% | 9% | . | . | -4.4% | -12% | -4%
O=C1CC(c2ccccc2)CC(O)=C1C=NCCN1CCN(C(=O)Cc2ccccc2)CC1 (stereo not given) | -6% | -84% | ? | -2% | -1% | 1.2% | -6% | -19%&-19%[46.1 µM]
CC1=C(C#N)C(NC(=O)c2ccco2)(C(F)(F)F)C(=O)N1 (stereo not given) | 1% | ? | -1% | 6% | 5% | 3.3% | -4% | 0%
O=C(CN1CCC2(CC1)OCCO2)c1c[nH]c2ccccc12 | -1% | 5% | 4% | 1% | 14% | -3.1% | 9% | -3%
CCOC(=O)c1ccccc1NC(=O)CN(c1ccccc1OC)S(C)(=O)=O | 5% | 1% | ? | 15% | . | -3.2% | 4% | -5%
CC1=CC(C)C(C(=O)O)C(C(=O)Nc2cccnc2)C1 (stereo not given) | 6% | -1% | . | -2% | -17% | . | 1% | -13%[46.1 µM]
CCOC(=O)N1CCc2c(sc(NCc3ccc(N(CC)CC)cc3)c2C(=O)Nc2cc(OC)ccc2OC)C1 | . | . | -2% | 3%[46.1 µM] | 3% | -5.5% | . | .
COCCCNc1nc2c(-c3cccc(C)c3)nnn2c2ccc(Cl)cc12 | -12% | -32% | . | . | 12% | . | 0% | .
O=C1NC(=S)NC(=O)C1Cc1ccccc1O | 18% | . | . | 4% | -26% | . | . | 3%
CSc1cccc(NC(=O)c2nnn(Cc3ccccc3)c2N)c1 | 1% | -11% | 0% | -2% | 53%[activator] | -8.7% | -3% | -5%
CC[C@H](C)[C@@H](NC(=O)O[C@@H]1C(=O)c2cc(Br)ccc2O[C@H]1c1cccc(OC)c1)C(=O)OC | 6% | 7% | -4%&-6% | 4% | 37%[activator] | 1.2%&-5.4% | -19% | -31%[14.2 µM]
CCOCCCNCc1cc(Br)ccc1OCC | -6% | -3% | . | . | -23% | . | 0% | .
O=C(Nc1ccccc1)C1(c2ccccc2)CC1(Cl)Cl (stereo not given) | 1% | -30% | -12% | 15% | -7% | -8.2% | -22% | -1%
O=C(CSc1nc2c([nH]c3ccccc32)c(=O)n1-c1ccccc1)N1CCOCC1 | 0% | -2% | -4%&2% | -5%[46.1 µM] | -5%&-14% | -1.9%&-1.0% | -7% | 2%
Cc1ccc(C)c(N2CCN(C(=O)Cn3ncn4cccc4c3=O)CC2)c1 | 7% | -14% | . | . | ? | . | -2% | .
COc1cc2nc(/C=C/c3ccc(N(C)C)cc3)sc2cc1SC | 6% | ? | ? | ? | 12% | -5.2% | -10% | 8%
Cc1ccc(C)c(NC(=O)c2cc(=O)c3cc(C)cc(C)c3o2)c1 | . | . | 10% | 15%[46.1 µM] | -7% | -1.0% | . | ?
N#Cc1ccccc1NC(=O)C(=O)NCC1CCCN1S(=O)(=O)c1cccs1 (stereo not given) | -1% | . | . | -5% | 5% | . | 1% | 19%
CCOCCCN(C(=O)Cn1nnc(-c2ccc(C)o2)n1)C(C(=O)NC1CCCC1)c1ccc(C)o1 (stereo not given) | 4% | -4% | . | . | 28% | . | 7% | -18%[46.1 µM]
O=C1c2cccc3cccc(c23)C(=O)N1CC1CCN(S(=O)(=O)c2ccccc2)CC1 | 17% | . | . | -8% | 1% | . | . | 1%[46.1 µM]
CCOC(=O)c1sc(-c2ccccc2)cc1NC(=O)CSc1nnnn1C | -7% | -37% | ? | -14% | -11% | -3.2% | 7% | ?
COC(=O)c1sc(NC(=S)NC(=O)c2ccccc2)nc1C | ? | -4% | -7% | ? | 29% | 2.3% | ? | ?
CCC(C)NC(=O)c1ccc(-n2c(=S)[nH]c3ccccc3c2=O)cc1 (stereo not given) | 6% | . | . | 15% | 6% | . | -1% | -1%
